Calb FLC: C. albicans growth inhibition with fluconazole, primary screen, CaCi-2 strain, Alamar Blue fluorescence; C. albicans CaCi-2 (fluconazole-resistant clinical isolate) + fluconazole, 48 h; growth inhibition, % (concentration not given with the values); AID 1979, 2009; hit rate 0.57% among 300,000;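 active = most replicates above 75%; inconclusive = exactly half above 75%; inactive = most below 75%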;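 also: all wells also contain fluconazole at 8 µg/ml as a sub-toxic cotreatment; 0% = median of DMSO wells and 100% = median of geldanamycin control wells; wells of about 8 µL received 7.5 nL stock; the first replicate is given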
HNF4A DNA FP: change in binding of human HNF4A to DNA, primary screen, biochemical, fluorescence polarization, FITC-DNA; 1 h; AID 1224865, 2016; hit rate 0.3% among 360,000; activity change, % at 10 µM; Hepatocyte nuclear factor 4-alpha (Homo sapiens), P41235; in the data active = activity change above about 30%, passing the limit was not always enough;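 also: controls were the assay level and a saturating level of protein; the project sought stronger binding though the title names inhibitors; some compounds called inactive have numbers as strong as hits; positive values seem to mean higher polarization but the record does not say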
ALR inh: inhibitors of human ALR sulfhydryl oxidase, primary screen, biochemical, H2O2 detection, HRP-luminol luminescence, single point; FAD-linked sulfhydryl oxidase ALR (Homo sapiens), P55789; purified ALR, DTT oxidation; inhibition, % (test concentration not listed); hit rate 3.8% among 290,000; AID 485317, 2010;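 active = mean and each replicate at 75% or more; inconclusive = only one of the two met; inactive = neither met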;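 also: stock transfer was 7.5 nL into about 7.5 µL; 0% = neutral wells and 100% = wells with inactivated enzyme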
Vif A3G: inhibitors of Vif binding to APOBEC3G peptide, primary screen, biochemical, TR-FRET, GST-Vif 1-94, biotin-A3G peptide, dose response retest (AID 1117319) | Virion infectivity factor (Human immunodeficiency virus type 1 group M subtype B (isolate … | TR-FRET GST-Vif / biotin-A3G peptide binding; higher % means a stronger effect; test concentration not given here; strong numbers were not always called active | inhibition, %, or IC50 in µM where a hit was titrated | hit rate 0.57% among 260,000;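 active = above the screen mean plus three standard deviations and confirmed in dose response; inconclusive = results disagree or hit not tested in dose response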;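 also: Vif residues 1-94 fused to GST binding biotinylated APOBEC3G peptide 110-148; 0% = full assay without inhibitor and 100% = GST in place of GST-Vif; retest series ran down from 100 µM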
LANA-H2A inh: blockers of LANA interaction with H2A/H2B – biochemical, FP readout, HTS, primary screen | Protein LANA1 (Human herpesvirus 8 type P (isolate GK18)), Q9QR71 | cell-free LANA-H2A/H2B peptide, fluorescence polarization | inhibition, % (concentration not given with the values) | hit rate 0.6% among 320,000 | AID 2629, 2010; in the data active = inhibition mostly above about 10%, no sharp cut-off; inactive = mostly below about 6.7%;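 also: stock transfer was 7.5 nL into about 10 µL; 0% = median of vehicle wells and 100% = median of positive control wells; one replicate is shown; the record names a cut of 25% in any replicate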
Target sequence (Q9QR71 whole entry, looked up): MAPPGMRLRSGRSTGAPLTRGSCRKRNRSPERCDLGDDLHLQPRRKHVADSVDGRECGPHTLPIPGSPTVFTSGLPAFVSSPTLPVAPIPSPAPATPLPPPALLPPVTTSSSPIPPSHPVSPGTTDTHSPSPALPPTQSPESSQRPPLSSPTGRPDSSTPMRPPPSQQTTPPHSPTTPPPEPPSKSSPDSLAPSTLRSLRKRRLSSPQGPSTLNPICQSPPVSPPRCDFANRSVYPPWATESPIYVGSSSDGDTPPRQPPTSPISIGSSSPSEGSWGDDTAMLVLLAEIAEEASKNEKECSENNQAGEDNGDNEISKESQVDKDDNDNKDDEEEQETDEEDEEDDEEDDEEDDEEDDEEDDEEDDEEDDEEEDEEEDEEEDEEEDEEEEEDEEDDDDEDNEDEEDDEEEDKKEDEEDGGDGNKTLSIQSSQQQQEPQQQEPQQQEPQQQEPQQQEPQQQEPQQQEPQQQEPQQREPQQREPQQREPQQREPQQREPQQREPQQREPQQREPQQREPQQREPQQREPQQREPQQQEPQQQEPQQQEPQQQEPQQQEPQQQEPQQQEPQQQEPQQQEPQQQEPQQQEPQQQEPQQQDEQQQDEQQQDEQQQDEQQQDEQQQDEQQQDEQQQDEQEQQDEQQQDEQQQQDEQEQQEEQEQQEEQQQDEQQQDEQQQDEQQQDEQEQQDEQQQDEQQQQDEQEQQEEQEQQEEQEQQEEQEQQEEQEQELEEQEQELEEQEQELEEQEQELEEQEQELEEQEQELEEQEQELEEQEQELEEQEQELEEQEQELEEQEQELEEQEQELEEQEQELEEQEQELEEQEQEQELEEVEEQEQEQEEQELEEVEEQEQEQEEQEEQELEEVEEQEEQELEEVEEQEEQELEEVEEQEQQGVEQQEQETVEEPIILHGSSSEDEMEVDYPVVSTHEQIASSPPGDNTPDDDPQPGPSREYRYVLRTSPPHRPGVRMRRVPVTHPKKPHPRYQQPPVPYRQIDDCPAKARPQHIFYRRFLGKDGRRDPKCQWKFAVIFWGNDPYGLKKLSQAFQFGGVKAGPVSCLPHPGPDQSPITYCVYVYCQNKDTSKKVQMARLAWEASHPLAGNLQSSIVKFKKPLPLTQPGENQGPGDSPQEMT
RanGTP-Imp inh: inhibitors of RanGTP-importin-beta interaction, primary screen, biochemical, FRET, CFP-Ran, YFP-importin-beta, homogeneous; Ran GTPase (GTP-bound) - importin-beta complex; cell-free CFP-Ran/YFP-importin-beta FRET ratio; inhibition, % (concentration not given with the values); hit rate 1.1% among 300,000; AID 2216, 2009;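 active = most replicates above 15%; inconclusive = exactly half above 15%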;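 also: 0% = DMSO wells and 100% = Ran loaded with GDP instead of GTP; wells of about 40 µL received 100 nL stock; the first replicate is given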
Beta2AR agonist: beta2AR agonists driving receptor internalization, primary screen, cell-based, FAP fluorogen, flow cytometry; Beta-2 adrenergic receptor (Homo sapiens), P07550; Am2.2-beta2AR cells; reference of the scale not given here; response, % (concentration not given with the values); hit rate 0.43% among 340,000;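 active = response above a set limit, near 3 SD of response in nonfluorescent compounds, cut at about 42% in these data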;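 also: stock transfer was 100 nL into about 11 µL; a reference agonist was the positive control; negative values mostly stem from fluorescent compounds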
Active calls of the source: *; ? = inconclusive; . = no result given. Random draw from the library, and some 6.3% of all compounds hit somewhere here.

SMILES	Calb FLC	HNF4A DNA FP	ALR inh	Vif A3G	LANA-H2A inh	RanGTP-Imp inh	Beta2AR agonist
O=C(Nc1cc(Cl)ccc1Cl)C1CC(=O)N(c2ccc(Br)cc2)C1 (stereo not given)	-5.0	-1.4	-29.7	3.3%	-1.5	-0.5	1.2
CC(c1ccccc1F)n1cc(C(=O)NCc2ccncc2)nn1 (stereo not given)	5.7	0.8	-3.4	?	1.4	-1.5	5.2
Cn1c(=O)[nH]c(=O)c2c1nc(Br)n2CCC(=O)c1ccccc1	14.0	-2.4	.	-2.8%	1.9	-2.7	-3.8
Cc1ccc(S(=O)(=O)N(C)Cc2ccc(C(=O)N/N=C/c3ccc(OC(F)F)cc3OC(F)F)cc2)cc1	6.0	-1.3	0.9	-3.7%	-3.7	4.4	6.3
C#CCn1cc(Cl)cc(C(=O)Nc2ccccc2)c1=O	-9.8	2.3	-1.2	5.6%	-1.4	-1.8	-3.1
Cc1noc(/C=C/N(C)C)c1S(=O)(=O)N1CCCC(C(=O)NCCC2=CCCCC2)C1 (stereo not given)	-0.7	0.2	4.9	.	8.0	-15.2	-3.0
CCOC(=O)c1ccccc1NC(=O)COC(=O)CCNS(=O)(=O)c1ccc(C)c(C)c1	-3.9	2.2	.	-0.2%	2.7	-2.2	0.7
Cc1ccc(C(c2ccc(C)o2)c2cccc([N+](=O)[O-])c2O)o1	-0.7	-7.3	36.7	30.6%	-2.1	-1.4	-2.2
COc1ccccc1NS(=O)(=O)c1cc(NC(=O)COc2ccccc2F)ccc1N1CCOCC1	.	0.2	-1.6	-2.9%	3.9	.	4.2
Cc1ccc2nc(C)cc(N/N=C/c3ccccc3O)c2c1	3.8	3.3	98.6*	5.4%	3.5	-4.3	-9.5

Continued (three carried over from the part before).
SMILES	Calb FLC	HNF4A DNA FP	ALR inh	Vif A3G	LANA-H2A inh	RanGTP-Imp inh	Beta2AR agonist
Cc1ccc(C(c2ccc(C)o2)c2cccc([N+](=O)[O-])c2O)o1	-0.7	-7.3	36.7	30.6%	-2.1	-1.4	-2.2
COc1ccccc1NS(=O)(=O)c1cc(NC(=O)COc2ccccc2F)ccc1N1CCOCC1	.	0.2	-1.6	-2.9%	3.9	.	4.2
Cc1ccc2nc(C)cc(N/N=C/c3ccccc3O)c2c1	3.8	3.3	98.6*	5.4%	3.5	-4.3	-9.5
COCCN1CN=C(Nc2nc3ccccc3o2)NC1	-1.0	-1.8	-10.3	5.5%	-5.9	-0.2	-3.2
COc1cc(/C=N/NC(=O)CCc2ccccc2)ccc1O	-4.0	1.2	99.0*	-1.6%	1.3	-0.2	-2.0
CC(=O)Nc1ccc(OS(=O)(=O)c2ccc(C(C)(C)C)cc2)cc1	-0.4	.	-6.4	8.5%	0.3	0.3	.
COc1ccc(-c2ccccc2NC(=O)C2CCCN(Cc3ccc(C)o3)C2)cc1 (stereo not given)	5.6	1.9	2.1	.	-2.0	5.7	2.1
CCN(CC)c1nc2ccccc2n2cnnc12	-20.2	-4.3	-9.3	4.0%	-2.3	2.9	-29.9
Cc1ccc(S(=O)(=O)NCc2nc3ccccc3c(=O)n2N)cc1	-0.2	-4.2	-6.0	2.7%	1.1	-10.2	2.7
CC(C)[C@H](N)C(=O)NC[C@H]1O[C@@H](n2cnc3c(N)ncnc32)[C@H](O)[C@@H]1O	.	1.9	.	-1.1%	.	.	-6.2
CCC(C)(O)C(=O)N[C@H]1CCCN1C(=O)/C=C/c1ccccc1 (stereo not given in full)	.	-1.2	-12.9	.	3.2	.	-6.2
CCCSC1=C(C#N)C(c2ccccc2OCC)CC(=O)N1 (stereo not given)	11.7	-0.4	-0.2	0.0%	1.3	1.0	0.7
S=C(NC1CCCCC1)N1CCOCCOCCN(C(=S)NC2CCCCC2)CCOCC1	-1.8	-1.0	.	10.1%	0.0	3.7	-9.1
O=c1cc(-c2ccccc2)[nH]c2nc3ccccc3n12	34.4	2.8	1.2	29.6%	2.9	?	-1.9
Cc1ccn2cc(CSc3ccccc3)nc2c1	-9.5	1.8	0.1	1.8%	-2.3	1.0	-8.2
CNC(=O)/C(C#N)=C/c1ccc(-c2ccc(OC)cc2[N+](=O)[O-])o1	41.0	-3.6	-23.7	4.0%	0.6	-7.7	-9.1
O=C(O)/C(=C\c1ccc(Cl)cc1)c1ccc(S(=O)(=O)N2CCCC2)s1	.	1.4	97.6*	.	5.9	.	12.7
CC(C)(C)c1ccc(C(=O)NNC(=O)CNC(=O)c2cccs2)cc1	.	0.8	-3.4	.	0.8	.	1.8
CC(C)Cn1c(SCC(=O)Nc2ccc(Cl)cc2F)nc(O)cc1=O	.	-1.9	98.5*	6.0%	2.0	.	5.5
O=C(CN1CCC(C(O)(c2ccccc2)c2ccccc2)CC1)Nc1ccccc1	9.3	2.7	0.8	-7.2%	-0.9	1.8	2.2
Cc1cc(C)c2nc(SCC(=O)NC(=O)c3cccn3C)cc(C)c2c1	13.4	0.6	-5.4	4.2%	-4.5	-4.4	3.0
Cc1ccc(-n2c(-c3ccccc3)c[n+]3c2CCC3)cc1	95.9*	-1.5	-10.6	0.9%	8.1	0.1	-2.0
CCCCNC(=O)C1C2C=CC3(CN(Cc4ccc(C)cc4)C(=O)C13)O2 (stereo not given)	7.2	3.0	11.1	1.9%	-1.7	2.2	0.6
Cc1cc(C)n(C(=O)c2cccc(S(=O)(=O)N3CCOCC3)c2)n1	10.6	0.2	.	1.0%	2.8	6.0	-1.5
COc1ccc(NS(=O)(=O)c2cccc(-c3n[nH]c(=S)n3Cc3ccccc3)c2)cc1	6.4	0.7	.	-1.0%	-3.6	4.9	0.0
N#Cc1ccc(Cl)cc1NC(=O)CSc1nc2nc(-c3cccs3)cc(C(F)(F)F)c2c(=O)[nH]1	27.5	.	-8.0	-1.9%	-1.3	4.5	.
CC(=O)C1=C(C)NC(SCC(=O)Nc2nc3ccccc3s2)=C(C#N)C1c1ccc(Cl)cc1 (stereo not given)	13.4	1.1	3.4	7.3%	-2.2	-1.4	3.2
Cc1cc(C)c(NC(=O)Cn2cc3c(n2)CCCC3)c(C)c1	5.4	-0.7	8.0	29.9%	0.2	-2.1	2.0
CC1CCN(CCCNS(=O)(=O)c2cc(Br)cc3c2N(C(=O)C2CC2)CC3)CC1	-3.5	0.9	-1.6	.	4.5	3.1	-7.9
Cc1cc(C(F)F)n2ncc(C(=O)NCc3ccc(F)cc3)c2n1	15.8	1.1	-1.6	3.2%	-2.3	-3.4	-4.9
CCOc1ccc(C(=O)NCC(=O)OCC(=O)Nc2cccc(S(=O)(=O)N3CCCC3)c2)cc1	-7.1	-2.1	.	.	-1.8	-0.4	-5.0
CCCCOc1ccc(Cn2c(=O)oc3ccccc32)cc1	-3.8	1.1	-2.5	1.4%	-0.4	?	-1.0
CSc1ccc(/C=C/C(=O)c2ccc(NC(=O)Cc3ccccc3)cc2)cc1	7.3	5.2	0.6	-1.4%	-9.6	-19.7	7.7

The last two compounds of the section before come first, to join the parts:
SMILES	Calb FLC	HNF4A DNA FP	ALR inh	Vif A3G	LANA-H2A inh	RanGTP-Imp inh	Beta2AR agonist
CCCCOc1ccc(Cn2c(=O)oc3ccccc32)cc1	-3.8	1.1	-2.5	1.4%	-0.4	?	-1.0
CSc1ccc(/C=C/C(=O)c2ccc(NC(=O)Cc3ccccc3)cc2)cc1	7.3	5.2	0.6	-1.4%	-9.6	-19.7	7.7
CCOc1ccc(C2(C)NC(=O)N(CCN(C)C)C2=O)cc1 (stereo not given)	2.1	0.2	-12.2	.	0.0	-2.7	-8.9
Cc1ccccc1C(=O)NC(CC(C)C)C(=O)NN1C(=O)c2ccccc2C1=O (stereo not given)	-27.5	0.2	-5.1	4.8%	-2.1	9.2	-2.4
CC1=C(C(=O)N2CCCC(C(=O)c3cccc4ccccc34)C2)OCCO1 (stereo not given)	?	2.5	3.5	-0.4%	0.1	-1.9	-2.2
Cc1c(N(C)S(=O)(=O)c2ccc(Cl)c(C(=O)N3CCC(C(N)=O)CC3)c2)c(=O)n(-c2ccccc2)n1C	-2.5	-2.9	-6.2	-7.9%	3.2	-1.1	-3.7
CS(=O)(=O)N(CC(=O)Nc1ccccc1-c1ccccc1)c1ccc(F)cc1	4.9	-0.9	1.3	.	1.4	0.3	-1.8
CCOCC(=O)Nc1cc(Cl)ccc1C	-0.6	2.6	13.7	3.8%	0.2	1.9	-5.8
Cc1ccc(NC(=O)CCc2c(C)nn(-c3ccc(N4CCOCC4)nn3)c2C)cc1F	6.5	1.8	-4.8	.	-0.6	6.4	-9.2
COCCNc1nc2ccccc2n1CC(=O)c1ccc(OC)c(OC)c1	-1.3	3.8	.	.	4.1	?	1.6
c1ccc(-c2nn3c(Cn4nnc5ccccc54)nnc3s2)nc1	23.8	-4.0	-17.9	2.2%	5.5	1.0	1.3
CCC1=C2CC[C@H]3C(=O)N(CC)C(=O)[C@H]3[C@H]2[C@@]2(Cc3ccccc3)C(=NCCOC)OC(=O)N2C1=O	-3.7	-2.0	.	.	7.2	0.7	-3.5
COc1ccccc1OCCNC(=O)CN1C(=O)NC2(CCCC2)C1=O	.	-0.5	.	-0.1%	.	.	1.2
Cc1ccc2oc(=O)n(CCOc3ccccc3)c2c1	-12.2	0.8	-3.6	-7.4%	-8.8	-2.0	0.5
CCOC(=O)CSc1nnc(-c2cccnc2)n1Cc1ccccc1	-8.2	-3.0	.	68.8%	5.2	-0.3	8.9
Cc1ccc(N2CC(C(=O)N3CCC(C(=O)Nc4ccc(Br)cc4)CC3)CC2=O)cc1 (stereo not given)	-11.3	0.4	-3.8	.	1.2	-1.3	-13.1
O=C(Nc1ccccn1)NC(C(F)(F)F)C(F)(F)F	-2.2	2.0	-5.4	-6.1%	0.4	0.6	2.5
Cc1ccccc1OCC(=O)NCC(=O)OCC(=O)c1ccc([N+](=O)[O-])cc1	-1.0	-0.4	96.6*	3.8%	-3.0	0.9	-2.5
CC(C)(C)c1ccc(NC(=O)NC2CCCc3ccccc32)cc1 (stereo not given)	-4.5	6.8	-11.0	7.7%	-2.6	-0.5	0.9
COCCNC(=O)C(c1ccccc1)N(CCOC)C(=O)Cn1nnc2ccccc21 (stereo not given)	.	-0.7	.	30.2%	.	.	2.1
O=C(c1ccccc1NS(=O)(=O)c1ccc(F)cc1F)N1CCCCC1	.	-1.3	-2.7	3.6%	3.6	.	-4.5
Cc1nn(Cc2ccccc2)c(C)c1C(=O)Nc1ccc(N2CCOCC2)cc1	-2.6	1.7	15.2	21.3%	1.0	3.6	-0.2
CCN(CC)S(=O)(=O)c1ccc(Cc2ncc(C(F)(F)F)cc2Cl)s1	1.6	-4.9	-1.4	3.6%	0.2	-3.9	-3.3
O=C(COc1ccc2ccc(=O)oc2c1)Nc1ccc2c(c1)OCCO2	-6.3	2.5	-7.7	9.8%	-0.3	-1.2	-18.7
O=C1CNC(=S)N1CCOc1ccccc1	-29.5	2.8	-8.0	.	2.8	3.9	-6.7
O=[N+]([O-])c1cc(C(F)(F)F)cc([N+](=O)[O-])c1NCCNC(=S)Nc1cccc(F)c1	11.4	1.4	-7.3	5.0%	1.1	-1.8	13.1
O=C(NNS(=O)(=O)c1ccc(Cl)cc1)c1ccc(S(=O)(=O)N2CCCCC2)cc1	-0.8	3.9	28.3	31.3%	-7.0	3.5	-2.9

Source: PubChem BioAssay (several laboratories)
